RanGTP-Impb inh = inhibitors of RanGTP-importin-beta interaction, primary screen, biochemical, FRET, CFP-Ran, YFP-importin-beta, homogeneous; cell-free CFP-Ran/YFP-importin-beta FRET ratio; inhibition, % (no concentration beside the values); hit rate 1.1% among 300,000; AID 2216;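 active = most replicates above 15%; inconclusive = exactly half above 15%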;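 also: 0% = DMSO wells and 100% = Ran loaded with GDP instead of GTP; wells of about 40 µL received 100 nL stock; the first replicate is given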
Vif A3G = inhibitors of Vif binding to APOBEC3G peptide, primary screen, biochemical, TR-FRET, GST-Vif 1-94, biotin-A3G peptide, dose response retest (AID 1117319) | TR-FRET GST-Vif / biotin-A3G peptide binding; higher % means a stronger effect; test concentration not given here; strong numbers were not always called active | inhibition, %, or IC50 in µM where a hit was titrated | hit rate 0.57% among 260,000;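 active = above the screen mean plus three standard deviations and confirmed in dose response; inconclusive = results disagree or hit not tested in dose response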;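 also: Vif residues 1-94 fused to GST binding biotinylated APOBEC3G peptide 110-148; 0% = full assay without inhibitor and 100% = GST in place of GST-Vif; retest series ran down from 100 µM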
Bfl-1 A1 inh = inhibitors of the anti-apoptotic protein A1, read as caspase activation. MEF A1-2A-BIM cells, Caspase-Glo 3/7 luminescence, 3 h; percent of clofoctol response, vehicle zero. hit rate 0.066% among 330,000. caspase activation, % (concentration not given with the values);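 active = over half of replicate activation scores above 10%, or exactly half above 10 with the replicate mean above 10; inconclusive = replicate mean below 10 yet half the replicates above 10; inactive = over half of replicates below 10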;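 also: wells of about 30 µL received 50 nL stock; many hits fall short of the cut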
Calb FLC = C. albicans growth modulation with fluconazole; C. albicans CaCi-2 (fluconazole-resistant clinical isolate) + fluconazole, Alamar Blue growth, 48 h; growth inhibition, % (no concentration beside the values); hit rate 0.57% among 300,000; AID 1979;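 active = most replicates above 75%; inconclusive = exactly half above 75%; inactive = most below 75%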;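 also: all wells also contain fluconazole at 8 µg/ml as a sub-toxic cotreatment; 0% = median of DMSO wells and 100% = median of geldanamycin control wells; wells of about 8 µL received 7.5 nL stock; the first replicate is given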
Beta apoptosis = blocks beta cell apoptosis | INS-1E cytokine-induced death, ATP luminescence, 48 h; percent of positive-control rescue, neutral wells zero | AID 435005 | hit rate 0.8% among 300,000 | protection from apoptosis, % (test concentration not listed);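 active = all replicates at 75% or more, or half of them and the mean; inconclusive = half reach 75% but not the mean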;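 also: 0% = cytokine-treated negative control wells and 100% = positive control rescue; higher means more ATP so stronger rescue from cytokine killing; wells of about 40 µL received 100 nL stock; the first replicate is given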
AF4-AF9 inh = blocks AF4 peptide binding to human AF9. P42568. AlphaScreen, biotin-AF4 peptide binding to FLAG-AF9. inhibition, % at 10 µM. hit rate 0.47% among 350,000;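 active = every replicate reaching a set inhibition limit, whatever the replicate mean, cut at about 25% in these data; inconclusive = mean inhibition reaches that limit but some replicates miss it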;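 also: 0% = plate neutral control median and 100% = total signal loss; the record names both 10 and 1 µM as test concentration; the first replicate is given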
Target sequence (P42568 whole entry, looked up): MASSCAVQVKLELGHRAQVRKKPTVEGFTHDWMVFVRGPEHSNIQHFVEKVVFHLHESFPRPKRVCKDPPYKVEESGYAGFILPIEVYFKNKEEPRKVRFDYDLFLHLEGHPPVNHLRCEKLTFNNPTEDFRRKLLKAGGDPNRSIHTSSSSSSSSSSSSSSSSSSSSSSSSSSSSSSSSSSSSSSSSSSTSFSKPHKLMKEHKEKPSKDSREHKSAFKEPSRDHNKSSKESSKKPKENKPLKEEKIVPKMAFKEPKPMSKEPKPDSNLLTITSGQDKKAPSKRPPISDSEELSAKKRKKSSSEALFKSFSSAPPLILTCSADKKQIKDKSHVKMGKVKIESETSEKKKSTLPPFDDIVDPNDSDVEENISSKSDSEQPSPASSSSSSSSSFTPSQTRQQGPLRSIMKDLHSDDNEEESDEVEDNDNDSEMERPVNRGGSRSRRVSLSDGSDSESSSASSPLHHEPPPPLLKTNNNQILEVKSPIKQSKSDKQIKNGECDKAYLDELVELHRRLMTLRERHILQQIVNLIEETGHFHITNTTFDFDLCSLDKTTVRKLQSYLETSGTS
rRNA inh HTS = inhibitors of bacterial rRNA selective over humanized ribosomes; hit rate 1.6% among 350,000; GFP signal change (wild-type ribosome), % (concentration not given with the values); E. coli WT GFP vs humanized-ribosome RFP mutants, fluorescence, 24 h; hits give low values; DMSO median 0, no signal -100;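 active = significant combined selectivity score with lowered wild-type GFP, culture density cut under 30%, mutant RFP and density less affected; inactive = any of these conditions unmet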; also: one replicate is shown; some compounds called inactive have numbers as strong as hits
T cruzi inh = blocks replication of Trypanosoma cruzi; T. cruzi beta-gal in NIH3T3, luminescence, 90 h; hit rate 1.4% among 300,000; inhibition, % (concentration not given with the values);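 active = mean inhibition across valid replicates above about 55%, limit read from the data; inconclusive = mean below that limit but half or more replicates reach it; inactive = mean below it, under half of replicates reach it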;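 also: signal also drops with host cell toxicity which is not excluded here; 0% = plate median of DMSO wells and 100% = zero luminescence signal; higher percent means less beta-gal luminescence so fewer parasites; stock transfer was 50 nL into about 50 µL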
rRNA inh HTS OD600 = second read-out of rRNA inh HTS, no call of its own (marks repeat the call); OD600 change, %; measured here: OD600 growth;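 optical density of the mix in the first replicate; 0 = DMSO median and -100 = no signal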
rRNA inh HTS RFP = recorded beside rRNA inh HTS, whose call it bears; RFP signal change, %; measured here: RFP humanized mutant strains;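 first replicate; 0 = DMSO median and -100 = no signal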
The depositor's hits bear a star; ? = inconclusive; . = not tested or not shown.

1	CC(C)(C)c1ccc(S(=O)(=O)N2CC3CC(C2)c2cccc(=O)n2C3)cc1 (stereo not drawn)
2	Fc1ccc(N2CCN(Cc3ccc4c(c3)OCO4)CC2)cc1
3	COC(=O)CC1=C(C(=O)OC)C2(C(=O)Nc3c(C)cccc32)C(C#N)=C(N)O1 (stereo not drawn)
4	Cc1cc(=O)oc2cc3c(cc12)CCCN3
5	c1ccc2c(c1)[nH]c1cnccc12
6	O=C(COC(=O)Cc1ccccc1)NNC(=O)c1ccc([N+](=O)[O-])cc1

Assay by compound	1	2	3	4	5	6
RanGTP-Impb inh	1.1	-0.8	-1.5	84*	-3.5	.
Vif A3G	7%	4%	-1%	-2%	31%	-8%
Bfl-1 A1 inh	-0.6	0.0	0.3	0.5	-0.3	?
Calb FLC	5	6	-27	2	.	.
Beta apoptosis	-18	0	-10	3	-4	-2
AF4-AF9 inh	-0.4	.	.	-14	-2.5	-2.5
rRNA inh HTS	8	.	.	14	.	0
rRNA inh HTS OD600	-7	.	.	5	.	3
rRNA inh HTS RFP	14	.	.	2.3	.	-3.7
T cruzi inh	7	5	-29	3	-16	.

Arranged by number of heavy atoms (highest first): some entries from above.
6	O=C(COC(=O)Cc1ccccc1)NNC(=O)c1ccc([N+](=O)[O-])cc1
2	Fc1ccc(N2CCN(Cc3ccc4c(c3)OCO4)CC2)cc1
4	Cc1cc(=O)oc2cc3c(cc12)CCCN3

Assay by compound	6	2	4
RanGTP-Impb inh	.	-0.8	84*
Vif A3G	-8%	4%	-2%
Bfl-1 A1 inh	?	0.0	0.5
Calb FLC	.	6	2
Beta apoptosis	-2	0	3
AF4-AF9 inh	-2.5	.	-14
rRNA inh HTS	0	.	14
rRNA inh HTS OD600	3	.	5
rRNA inh HTS RFP	-3.7	.	2.3
T cruzi inh	.	5	3

(more compounds)
7	COc1ccc(NC(c2ccccc2)P(=O)(Oc2ccccc2)Oc2ccccc2)cc1 (stereo not drawn)
8	c1cc2n(c1)-c1c(ccc3c1OCO3)CNC2c1ccc2c(c1)OCO2 (stereo not drawn)
9	CCOC(=O)c1nc2ccccc2c(=O)n1-c1ccc(C)cc1
10	COC(=O)C1=C(c2ccc(C(C)=O)cc2)C[C@@H]2CC[C@H]1N2C(=O)NCCO
11	CN(c1ccc(OCC(=O)N2CCN(C/C=C/c3ccccc3)CC2)cc1)S(=O)(=O)c1cccs1
12	O=[N+]([O-])NC1=NCCN1Cc1ccc(Cl)nc1

Assay by compound	7	8	9	10	11	12
RanGTP-Impb inh	10.0	1.1	6.6	.	-0.2	0.2
Vif A3G	19%	3%	-3%	.	2%	.
Bfl-1 A1 inh	-0.1	-0.1	0.6	-0.4	-0.7	-0.2
Calb FLC	-1	-2	4	.	-6	.
Beta apoptosis	-1	-8	-4	-1	15	6
AF4-AF9 inh	1.0	.	.	-3.3	3.0	-2.0
rRNA inh HTS	-2	.	.	14	-12	.
rRNA inh HTS OD600	1	.	.	15	-5	.
rRNA inh HTS RFP	-3.4	.	.	-1.5	29	.
T cruzi inh	3	19	-6	.	45	10

Quoted at random: 2 compounds from above, in no set order.
9	CCOC(=O)c1nc2ccccc2c(=O)n1-c1ccc(C)cc1
12	O=[N+]([O-])NC1=NCCN1Cc1ccc(Cl)nc1

Assay by compound	9	12
RanGTP-Impb inh	6.6	0.2
Vif A3G	-3%	.
Bfl-1 A1 inh	0.6	-0.2
Calb FLC	4	.
Beta apoptosis	-4	6
AF4-AF9 inh	.	-2.0
rRNA inh HTS	.	.
rRNA inh HTS OD600	.	.
rRNA inh HTS RFP	.	.
T cruzi inh	-6	10

The results go on.
13	Cn1cccc1CNCCc1ccccc1
14	CC/C(=N\NC(=O)c1ccccc1O)c1c(O)n(Cc2ccccc2)c(=O)[nH]c1=O
15	COc1cccc(O)c1CN1CCCC(C(=O)c2ccccc2SC)C1 (stereo not drawn)
16	COC(=O)C1=C(c2ccc(-c3ccccc3)c(F)c2)C[C@@H]2CC[C@H]1N2C(=O)NCc1cccc2ccccc12
17	CC1=C(/C=C/c2ccccc2)CCN(C)C1
18	Cc1cccc(-n2c(O)c(C=NCCN3CCCCC3)c(=O)[nH]c2=O)c1

Assay by compound	13	14	15	16	17	18
RanGTP-Impb inh	4.0	3.3	-2.1	.	2.3	0.6
Vif A3G	11%	-1%	?	.	9%	15%
Bfl-1 A1 inh	1.0	-1.8	-0.3	0.1	1.0	-0.2
Calb FLC	-7	-5	-27	.	-9	-10
Beta apoptosis	-3	3	1	12	-2	-8
AF4-AF9 inh	.	3.9	9.8	1.8	.	0.7
rRNA inh HTS	.	-3	-13	5	.	19
rRNA inh HTS OD600	.	-11	-19	0	.	18
rRNA inh HTS RFP	.	8.3	-2.4	-6.9	.	-0.9
T cruzi inh	33	6	15	.	27	-6

19	C#CCN1CCN(c2cccc(C(F)(F)F)c2)CC1
20	NC(=O)Nc1cccc(C(F)(F)F)c1
21	Cc1ccc(-c2nc3ccccc3c(=O)n2-c2cccc(O)c2)cc1
22	COc1ccc(-n2c(O)c(C(C)=NCc3ccc4c(c3)OCO4)c(=O)[nH]c2=O)cc1
23	CCOc1nc(NC(C)C)nc(N2CC3CC(C2)c2cccc(=O)n2C3)n1 (stereo not drawn)
24	C=CCSc1nc2c(c(-c3ccsc3)c1C#N)CN(C)CC2

Assay by compound	19	20	21	22	23	24
RanGTP-Impb inh	3.2	-5.6	0.7	-2.0	-0.4	1.8
Vif A3G	11%	-5%	.	14%	-3%	?
Bfl-1 A1 inh	2.5	0.5	-0.4	1.6	0.0	-0.3
Calb FLC	9	0	22	2	-4	-3
Beta apoptosis	-2	-1	.	.	-5	1
AF4-AF9 inh	-2.0	.	2.4	1.1	-0.7	5.0
rRNA inh HTS	13	.	-19	7	5	-1
rRNA inh HTS OD600	11	.	-12	9	-2	-2
rRNA inh HTS RFP	1.5	.	-1.0	-1.8	-1.3	3.0
T cruzi inh	-3	-16	-2	7	11	38

Copied from the list:
cpd 23 in Calb FLC is entered as -4
cpd 20 in RanGTP-Impb inh is entered as -5.6
cpd 21 in T cruzi inh is entered as -2
cpd 22 in AF4-AF9 inh is entered as 1.1

(further entries)
25	CCCC12CN3CCN(C1)CC(CCC)(C3)C2=O
26	COC(=O)c1cncn1C(C)c1ccccc1 (stereo not drawn)
27	CC(C)[C@]12O[C@H]1[C@@H]1O[C@]13[C@]1(O[C@H]1C[C@H]1C4=C(CC[C@@]13C)C(=O)OC4)[C@@H]2O
28	CCCCN=C[C@]12CCC(O)CC1(O)CCC1[C@@H]2CC[C@]2(C)[C@H](C3C=CC(=O)O3)CCC12O (stereo partly drawn)
29	CC1CN=C(NCc2ccc(F)cc2)S1 (stereo not drawn)

Assay by compound	25	26	27	28	29
RanGTP-Impb inh	-1.2	1.7	2.7	-0.8	2.5
Vif A3G	-2%	3%	-3%	.	18%
Bfl-1 A1 inh	0.8	0.6	?	1.7	0.7
Calb FLC	5	-4	.	-1	-7
Beta apoptosis	-1	1	-5	-10	-1
AF4-AF9 inh	6.7	.	.	0.1	-1.1
rRNA inh HTS	5	.	.	0	8
rRNA inh HTS OD600	4	.	.	-4	3
rRNA inh HTS RFP	-3.9	.	.	-0.2	0.6
T cruzi inh	4	7	?	2	-10

Limited to Beta apoptosis, for 2 of the compounds above:
nr	Molecule	Beta apoptosis
28	CCCCN=C[C@]12CCC(O)CC1(O)CCC1[C@@H]2CC[C@]2(C)[C@H](C3C=CC(=O)O3)CCC12O (stereo partly drawn)	-10
29	CC1CN=C(NCc2ccc(F)cc2)S1 (stereo not drawn)	-1

An excerpt; the hit share may differ from the screen's.
